Lassa entry inh – blocks Lassa virus binding to or entry into cells. actives 1.2% (n = 300,000). AID 540256. Lassa virus pseudotype entry inhibition, cell reporter; control for the full effect not named in the record. Potency, µM (series often up to 37.9 µM), for the others: at the top dose activity change, negative = inhibition, usual class: inhibitors; active means well fitted inhibition curve with a large enough effect; inconclusive means small, poorly fitted or top-dose-only effect, or effect the other way; inactive means flat fitted curve, though single readings scatter; tested in HEK293 cells; further: on the % scale 0 is the no-effect control and ±100 the full control effect; nearly all actives have a fitted effect of over 50% in size; luciferase read-out
NS1 inh – inhibitors of influenza NS1 protein function; S. cerevisiae slowed by influenza A NS1, growth recovery by OD600; Potency, µM (titrated, usually from 46.1 µM), without a hit: top-dose activity, positive = more growth; actives 0.4% (n = 270,000); active means well fitted rising curve with a large enough effect; inconclusive means small, poorly fitted or top-dose-only effect; inactive means no such curve, though single readings can be large or run the other way; further: nearly all actives have a fitted effect of over 50% in size
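S. cerevisiae expressing influenza A NS1, grown in glucose, washed, then diluted 1:100 into pH 6.0 -URA galactose medium with 23 nl compound. Growth recovery read as OD600; NS1-free strain serves as control.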
Cruzain inh Det – inhibitors of Trypanosoma cruzi cruzain with detergent | P25779 | purified cruzain, Z-FR-AMC fluorescence, 0.01% Triton | Potency, µM, for the others: max response, negative = inhibition, usual class: inhibitors | actives 0.43% (n = 200,000) | AID 1478;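 further: plate controls were neutral wells for no effect and buffer without enzyme for full effect; nearly all actives have a fitted effect of over 40% in size; top concentration of the series not given in the record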
Target sequence (P25779 123-467 limits assumed): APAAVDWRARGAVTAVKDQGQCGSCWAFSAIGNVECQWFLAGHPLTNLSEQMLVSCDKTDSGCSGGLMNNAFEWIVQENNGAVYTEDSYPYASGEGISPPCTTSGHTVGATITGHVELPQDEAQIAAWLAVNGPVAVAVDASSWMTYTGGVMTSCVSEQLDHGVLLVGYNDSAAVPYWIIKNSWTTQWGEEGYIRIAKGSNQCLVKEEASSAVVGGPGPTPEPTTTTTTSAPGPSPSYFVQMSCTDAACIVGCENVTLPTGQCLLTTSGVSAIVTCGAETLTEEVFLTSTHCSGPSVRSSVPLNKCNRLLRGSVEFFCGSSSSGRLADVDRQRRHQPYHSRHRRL
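Purified cruzain (1.5 nM final) was preincubated with compounds for 15 min at room temperature in 100 mM sodium acetate pH 5.5, 5 mM DTT, 0.01% Triton X-100. Reaction started with 2 uM Z-FR-AMC; AMC fluorescence change over 60 s gave activity.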
Cruzain inh noDet – inhibitors of Trypanosoma cruzi cruzain without detergent. P25779. purified cruzain, Z-FR-AMC fluorescence, no detergent. Potency, µM, for the others: max response, negative = inhibition, hits mostly inhibitors. actives 2.3% (n = 200,000). AID 1476;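 further: plate controls were enzyme without inhibitor for no effect and buffer without enzyme for full effect; nearly all actives have a fitted effect of over 40% in size; top concentration of the series not given in the record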
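Purified cruzain at 1.5 nM, pre-incubated 15 min with compound at room temperature in 100 mM sodium acetate pH 5.5, 5 mM DTT, 0.00005% Triton X-100. Reaction started with 2 uM Z-FR-AMC; AMC fluorescence increase over 60 s gives rate.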
SARS PLP yeast – SARS-CoV PLP inhibition in yeast. S. cerevisiae expressing SARS-CoV PLpro, growth rescue; control for the full effect not named in the record. Potency, µM (titrated, usually from 32.9 µM), for inactives: top-dose activity, positive = growth rescue. actives 0.19% (n = 330,000). AID 485353; active means well fitted rising curve with a large enough effect; inconclusive means small, poorly fitted or top-dose-only effect; inactive means no such curve, though single readings can be large or run the other way; further: 0% is about no effect; nearly all actives have a fitted effect of over 55% in size; growth read by luminescence after 48 h
StopGo reporter – FMDV 2A StopGo reporter, luciferase signal | human cells with a luciferase reporter of 2A StopGo recoding; control for the full effect not named in the record | Potency, µM (series often up to 57.9 µM), without a hit: at the highest dose signal change, negative = less light | actives 1.2% (n = 410,000); active = well fitted falling curve with a large enough effect; inconclusive = small, poorly fitted or top-dose-only effect; inactive = no such curve, though single readings can be large or run the other way; tested in HEK293T cells; further: on the % scale 0 is the no-effect control and ±100 the full control effect; nearly all actives have a fitted effect of over 45% in size; luciferase light after 4 h
Marburg entry inh – blocks Marburg virus binding to or entry into cells; Marburg virus pseudotyped entry inhibition, cell reporter; control for the full effect not named in the record; about a third of the inactives were read at about 46 µM; actives 1.8% (n = 300,000); Potency, µM (doses to about 37.8 µM), for the others: at the top dose activity change, negative = inhibition, actives largely listed as inhibitors; AID 540276; active = well fitted inhibition curve with a large enough effect; inconclusive = small, poorly fitted or top-dose-only effect, or effect the other way; inactive = flat fitted curve, though single readings scatter; tested in HEK293 cells; about a fifth of its hits are not listed in these tables; further: on the % scale 0 is the no-effect control and ±100 the full control effect; luciferase read-out
RE007 growth inh – less growth of the S. pombe RE007 Vpr strain | AID 651644 | Potency, µM (highest dose often 92.2 µM), for the others: top-dose activity change, negative = less growth | S. pombe RE007 Vpr strain, BacTiter-Glo ATP luminescence, 24 h; control for the full effect not named in the record | actives 0.21% (n = 360,000); active = well fitted falling curve with a large enough effect; inconclusive = small, poorly fitted or top-dose-only effect; inactive = no such curve, though single readings can be large or run the other way;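 further: on the % scale 0 is the no-effect control and ±100 the full control effect; nearly all actives have a fitted effect of over 50% in size; the assay follows cell death caused by Vpr and the record does not say whether a fall means rescue or toxicity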
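Fission yeast RE007 carrying one integrated HIV-1 vpr copy, seeded at OD 0.01 in PMG+AL medium with 23 nL pinned compound. Grown 24 h at 30 degrees; viability read by BacTiter-Glo luminescence after 5 min.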
An asterisk follows results filed as active; & = joins results of further samples; [ ] = remark or other dose. Unless noted, the call rests on the fitted dose curve; in most records, active means well fitted curve in the direction sought with a large enough effect; inconclusive means small, poorly fitted or top-dose-only effect, or another doubt; inactive means no such curve, though single readings can be large; an effect the other way counts as inactive or inconclusive. Potency means the concentration at half of the fitted maximal effect.

How did COc1ccc(C2C=C(c3ccccc3)Nc3nc(CCCO)nn32)cc1 (stereo not drawn) do in these assays?
Lassa entry inh: 1%; NS1 inh: -11%; Cruzain inh Det: -2.9%; Cruzain inh noDet: 4%; SARS PLP yeast: 2%; StopGo reporter: 4%; Marburg entry inh: -3%; RE007 growth inh: -18%

How did O=C(NCC(=O)N(c1ccc(Cl)cc1)C(C(=O)NC1CCCC1)c1ccncc1)c1ccco1 (stereo not drawn) do in these assays?
Lassa entry inh: 4%; NS1 inh: -3%; SARS PLP yeast: 1%; StopGo reporter: -12%; Marburg entry inh: -8%[46.1 µM]; RE007 growth inh: -4%

How did COc1ccc2c(c1)c(=O)c(C(=O)c1ccc(F)cc1)cn2CC(=O)Nc1ccc2c(c1)OCCO2 do in these assays?
Lassa entry inh: 12%[46.1 µM]; Cruzain inh Det: -2.4%; Cruzain inh noDet: 10%; StopGo reporter: -14%; Marburg entry inh: -8%[46.1 µM]

What do the screens show for `OCCCNc1nc(-c2ccc(Cl)cc2)nnc1-c1ccc(Br)cc1`?
Lassa entry inh: inconclusive; NS1 inh: -37%; Cruzain inh Det: -5.2%; Cruzain inh noDet: 2%; SARS PLP yeast: -84%; StopGo reporter: -6%; Marburg entry inh: inconclusive; RE007 growth inh: -21%

Results for Cc1cc2[nH]c(=S)[nH]c2cc1C ?
Lassa entry inh: -3%; NS1 inh: 24%; Cruzain inh Det: -1.1%; Cruzain inh noDet: -13%; SARS PLP yeast: -1%; StopGo reporter: -15%; Marburg entry inh: -1%; RE007 growth inh: -3%

What do the screens show for `COc1ccc(NC(=O)COc2ccc(S(=O)(=O)N3CCOCC3)cc2C)cc1OC`?
NS1 inh: 9%; SARS PLP yeast: -2%; StopGo reporter: -24%; Marburg entry inh: -7%[46.1 µM]; RE007 growth inh: inconclusive

What do the screens show for `CC(=O)c1ccc(NC(=O)C(C)OC(=O)c2ccc3c(c2)nc(C)n3-c2ccccc2)cc1` (stereo not drawn)?
Lassa entry inh: 15%; NS1 inh: -16%; Cruzain inh Det: -4.4%; Cruzain inh noDet: 26%; SARS PLP yeast: 7%; StopGo reporter: 27%; Marburg entry inh: inconclusive; RE007 growth inh: 5%

What do the screens show for `CCOC(=O)/C(=C\C=C\N1CCOCC1)C(C)=O`?
Lassa entry inh: 9%; SARS PLP yeast: 0%; StopGo reporter: 20%; Marburg entry inh: -6%[46.1 µM]; RE007 growth inh: 1%

What do the screens show for `Cc1ccc2c(N)c(C(=O)c3ccccc3)sc2n1`?
Lassa entry inh: inconclusive; NS1 inh: -31%; SARS PLP yeast: -6%; StopGo reporter: 29%; Marburg entry inh: -20%; RE007 growth inh: -32%

Results for O=C(COc1ccc(-n2cnnn2)cc1)N1CCN(c2ccc(F)cc2)CC1 ?
Lassa entry inh: 20%; NS1 inh: -4%; Cruzain inh Det: 4.7%; Cruzain inh noDet: 0%; SARS PLP yeast: -3%; StopGo reporter: -27%; Marburg entry inh: -2%; RE007 growth inh: 9%

Results for Oc1ccc(/C=N/N(c2ccccc2)c2ccccc2)cc1O ?
Lassa entry inh: -6%[46.1 µM]; NS1 inh: -1%; SARS PLP yeast: inconclusive; StopGo reporter: -13%; Marburg entry inh: 4%[46.1 µM]; RE007 growth inh: 15%

Results for CCCC(=O)Nc1nc(C(=O)OCC)cs1 ?
Lassa entry inh: 3%; NS1 inh: -1%; Cruzain inh Det: 1.9%; Cruzain inh noDet: 3%; SARS PLP yeast: -2%; Marburg entry inh: 14%; RE007 growth inh: 8%

Results for COc1ccccc1Nc1n[nH]c(=S)s1 ?
Lassa entry inh: 18%; SARS PLP yeast: 2%; StopGo reporter: 19%; Marburg entry inh: 27%[46.1 µM]; RE007 growth inh: 0%

How did Cc1ccc(CONC(=O)c2ccccc2Cl)cc1 do in these assays?
Lassa entry inh: 3%; SARS PLP yeast: 2%; StopGo reporter: 12%; Marburg entry inh: inconclusive; RE007 growth inh: 5%

What do the screens show for `Cc1nc2cc(-c3ccc(Cl)cc3)nn2c(C)c1CCC(=O)NC(C)c1ccc2c(c1)OCCO2` (stereo not drawn)?
Lassa entry inh: -10%; NS1 inh: -16%; Cruzain inh Det: -17%; Cruzain inh noDet: inconclusive; SARS PLP yeast: -52%; StopGo reporter: inconclusive; Marburg entry inh: -8%; RE007 growth inh: 8%

What do the screens show for `CCn1c(CNS(=O)(=O)c2ccc(Cl)cc2)n[nH]c1=S`?
Lassa entry inh: 0%; NS1 inh: 2%; SARS PLP yeast: 0%; StopGo reporter: 22%; Marburg entry inh: -11%[46.1 µM]; RE007 growth inh: -2%

How did O=C(CN1C(=O)CCn2nc(-c3ccccc3)cc21)NCc1ccccc1 do in these assays?
Lassa entry inh: 17%[46.1 µM]; Cruzain inh Det: 5.2%; Cruzain inh noDet: 14%; StopGo reporter: -5%

What do the screens show for `COCCCNC(=O)C1CC(=O)N(C2CCCC2)C1` (stereo not drawn)?
Lassa entry inh: -17%; NS1 inh: -1%; Cruzain inh Det: -0.3%; Cruzain inh noDet: 6%; SARS PLP yeast: -9%; Marburg entry inh: -10%; RE007 growth inh: -13%

How did COc1ccccc1NC(=O)c1cc(C)nc2ccccc12 do in these assays?
NS1 inh: 0%; SARS PLP yeast: -2%; StopGo reporter: 1%; RE007 growth inh: 3%

Results for Cn1c2ccccc2c(=O)c2c(=O)n(C3CCCCCC3)c(C3CCCCC3)nc21 ?
Lassa entry inh: -4%; NS1 inh: 6%; Cruzain inh Det: 1.6%; Cruzain inh noDet: -24%; SARS PLP yeast: 0%; StopGo reporter: 25µM*; Marburg entry inh: -19%; RE007 growth inh: 3%

What do the screens show for `COc1ccc(NS(=O)(=O)/C=C/c2ccccc2)cc1`?
Lassa entry inh: 20%; NS1 inh: 8%; Cruzain inh Det: -4.3%; Cruzain inh noDet: -10%; SARS PLP yeast: -7%; StopGo reporter: 37%[activator]; Marburg entry inh: -4%; RE007 growth inh: 10%

How did Cc1cccc(OCC(=O)Nc2ccc3oc(=O)ccc3c2)c1 do in these assays?
Lassa entry inh: -12%[46.1 µM]; NS1 inh: -3%; SARS PLP yeast: 1%; StopGo reporter: 0%; Marburg entry inh: inconclusive; RE007 growth inh: -11%

How did COc1cc(-c2nnc(SCC(=O)Nc3ccc(F)c(Cl)c3)o2)cc(OC)c1OC do in these assays?
Lassa entry inh: 0%[46.1 µM]; Cruzain inh Det: -0.9%; Cruzain inh noDet: inconclusive; StopGo reporter: -26%; Marburg entry inh: -5%[46.1 µM]

How did CCOc1ccc(NC(=O)c2cc3c(=O)n4cccc(C)c4nc3s2)cc1 do in these assays?
Lassa entry inh: 1%[46.1 µM]; Cruzain inh Det: -2.1%; Cruzain inh noDet: -12%; StopGo reporter: -5%; Marburg entry inh: -15%[46.1 µM]

How did CC(C)Oc1ccc(CNC(=O)Cn2c(=O)oc3ccccc32)cc1 do in these assays?
NS1 inh: 0%; Cruzain inh Det: -1.3%&5.1%; Cruzain inh noDet: 7%&-10%; SARS PLP yeast: 3%; StopGo reporter: 0%&-18%; Marburg entry inh: 23%[46.1 µM]; RE007 growth inh: 20%

Results for O=c1c2c3c(sc2nc2sc(C4CC4)nn12)CCCC3 ?
Lassa entry inh: inconclusive; NS1 inh: -12%; Cruzain inh Det: -2.7%; Cruzain inh noDet: -2%; SARS PLP yeast: -5%; StopGo reporter: 37%[activator]; Marburg entry inh: 1%; RE007 growth inh: -20%

What do the screens show for `Cc1oc2c(c1C(=O)Nc1cccc(C(=O)O)c1)CCCC2`?
Lassa entry inh: inconclusive; NS1 inh: 6%; Cruzain inh Det: -0.9%; Cruzain inh noDet: -1%; SARS PLP yeast: 6%; Marburg entry inh: 6%; RE007 growth inh: -15%

How did COc1cccc(N(C(=O)CNC(=O)c2ccco2)C(C(=O)NC2CCCC2)c2cccnc2)c1 (stereo not drawn) do in these assays?
Lassa entry inh: 0%; NS1 inh: -14%; SARS PLP yeast: 1%; StopGo reporter: 13%; Marburg entry inh: -19%[46.1 µM]; RE007 growth inh: -13%

What do the screens show for `Cc1ccc(C2/C(=C(/O)c3ccc4c(c3)CC(C)O4)C(=O)C(=O)N2CCCn2ccnc2)cc1` (stereo not drawn)?
NS1 inh: -1%; SARS PLP yeast: 8%; StopGo reporter: -6%; RE007 growth inh: -13%

Results for C/C(=N\NC(=O)c1nn(C)c(C)c1Br)c1cccc(NC(=O)c2ccc(F)cc2)c1 ?
Lassa entry inh: 1%; NS1 inh: -12%; Cruzain inh Det: -3.7%; Cruzain inh noDet: inconclusive; SARS PLP yeast: -3%; StopGo reporter: -10%; Marburg entry inh: inconclusive; RE007 growth inh: -5%

Results for O=C1NC(=O)C2(CCCc3ccccc32)N1 (stereo not drawn) ?
NS1 inh: 0%; SARS PLP yeast: inconclusive; StopGo reporter: 1%; RE007 growth inh: -8%

How did O=C(COC(=O)C1=COCCO1)Nc1ncc(C(F)(F)F)cc1Cl do in these assays?
Lassa entry inh: -19%; NS1 inh: 5%; Cruzain inh Det: 0.3%; Cruzain inh noDet: -11%; SARS PLP yeast: 0%; StopGo reporter: 19%; Marburg entry inh: 13%; RE007 growth inh: 16%

How did CC/C(CC(=O)C(F)(F)F)=N\NC(=O)/C(C#N)=C/N(C)C do in these assays?
NS1 inh: -1%; SARS PLP yeast: -1%; StopGo reporter: -6%; RE007 growth inh: 15%

Results for COC(=O)c1ccc(NC(=O)CN(c2cccc(C(F)(F)F)c2)S(C)(=O)=O)cc1 ?
Lassa entry inh: -26%[46.1 µM]; Cruzain inh Det: -9.4%; Cruzain inh noDet: 2%; StopGo reporter: inconclusive; Marburg entry inh: 4%[46.1 µM]

Results for CCC/C(=N\NC(=O)C1CC1)c1ccc(Br)cc1 ?
NS1 inh: 14%; SARS PLP yeast: 5%; StopGo reporter: -6%; RE007 growth inh: -1%

Results for COc1cc(N2CCOCC2)ccc1/C=C1\C(=O)NC(=O)N(Cc2cccs2)C1=O ?
Lassa entry inh: -1%; SARS PLP yeast: 1%; StopGo reporter: -5%; Marburg entry inh: -3%[46.1 µM]; RE007 growth inh: 18%

How did C=CCNC(=S)Nc1nc2c(cc1C(=O)OCC)COC(C)(C)C2 do in these assays?
NS1 inh: 2%; SARS PLP yeast: 0%; StopGo reporter: -5%; RE007 growth inh: 0%

Source: PubChem BioAssay (National Center for Advancing Translational Sciences (NCATS))

An unsorted share of the library. Share with any hit: about 4.7%.
